Arbovirus inh: blocks arbovirus infection. inhibition, % at 10 µM. arbovirus infection cell-based antiviral screen. 0.37% of 200,000 active;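 active = inhibition from about 30%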;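 also: bluetongue infection of BSR cells; cell survival read as ATP light after 72 h; 0% = infected wells without compound and 100% = uninfected wells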
RecA splice inh: inhibitors of M. tuberculosis RecA intein splicing; P9WHJ3; cell-free RecA intein splicing, fluorescence; inhibition, %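 (about 9 µM by stock and volumes)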; 0.75% of 290,000 active; in the data active = inhibition above about 30%; inconclusive = no clear call, values can overlap the other calls;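 also: 0% = vehicle wells and 100% = reference inhibitor control wells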
Target sequence (P9WHJ3 whole entry, looked up, canonical isoform): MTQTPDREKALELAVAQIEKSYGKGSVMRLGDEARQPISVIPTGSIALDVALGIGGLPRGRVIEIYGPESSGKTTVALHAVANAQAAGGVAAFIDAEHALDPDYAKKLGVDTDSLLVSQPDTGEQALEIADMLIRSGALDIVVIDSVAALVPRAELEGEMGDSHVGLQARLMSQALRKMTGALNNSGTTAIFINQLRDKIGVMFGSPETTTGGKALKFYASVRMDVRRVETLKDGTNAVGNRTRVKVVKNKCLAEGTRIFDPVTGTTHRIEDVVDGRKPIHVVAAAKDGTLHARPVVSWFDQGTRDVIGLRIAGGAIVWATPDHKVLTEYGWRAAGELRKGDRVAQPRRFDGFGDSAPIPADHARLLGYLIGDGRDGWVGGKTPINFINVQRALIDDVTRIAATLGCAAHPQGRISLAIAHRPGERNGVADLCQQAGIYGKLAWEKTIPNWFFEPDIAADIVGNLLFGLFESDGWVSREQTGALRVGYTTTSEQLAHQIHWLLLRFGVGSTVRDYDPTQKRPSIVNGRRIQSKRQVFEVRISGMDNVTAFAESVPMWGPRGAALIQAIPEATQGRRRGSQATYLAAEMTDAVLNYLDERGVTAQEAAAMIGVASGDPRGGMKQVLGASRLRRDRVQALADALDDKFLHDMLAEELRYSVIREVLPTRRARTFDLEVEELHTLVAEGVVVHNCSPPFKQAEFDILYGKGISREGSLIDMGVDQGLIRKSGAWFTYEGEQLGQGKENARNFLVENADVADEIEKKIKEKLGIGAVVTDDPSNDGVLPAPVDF
Mtb H37Rv: M. tuberculosis H37Rv growth inhibitors, H37Rv strain (AID 1626). M. tuberculosis H37Rv growth inhibition; higher % means a stronger effect. inhibition, % at 10 µM; hits with a dose series show IC50 in µM. 0.95% of 220,000 active;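 active = confirmed in a dose series; inconclusive = inhibition above 80% but not taken into the dose series; inactive = below 80% or under 30% at every dose of the series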;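 also: bacteria incubated seven days before Alamar blue readout; 0% = bacteria only wells and 100% = bacteria with antibiotic wells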
YopH PTP inh: YopH (Yersinia) phosphatase inhibition; inhibition, %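 (about 10 µM by stock and volumes)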; 0.16% of 140,000 active; fluorescence Ex485/Em525;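 active = inhibition of 50% or more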;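 also: controls were vehicle for no effect and minimum signal wells for full effect; inactives centre near -20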
Mtb bLac sens: beta-lactam sensitization of Mtb H37Rv | M. tuberculosis H37Rv growth with meropenem, percent inhibition; hits of this screen are not shown here | inhibition, % at 25 µM | 0.27% of 330,000 active | AID 434955;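 active = about 74% or more and at least 40 points above the plate without the antibiotic, then above 30% in a dose series; inconclusive = first-round hits that could not be retested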;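 also: growth measured after seven days incubation then overnight dye step; 0% = bacteria only wells and 100% = bacteria with antibiotic; twin plates without the antibiotic show which effects depend on it; some results filed as inactive read as strong as hits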
Arbovirus inh repeat: second read-out of Arbovirus inh, no call of its own (marks repeat the call); inhibition, %; measured here: 10K subset replicate screen; many hits read low in the repeat;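 first of two repeat runs on a subset; 0% = infected and 100% = uninfected wells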
* hit, by the source's call; i = inactive; ? = inconclusive; · = no result given.

SMILES	Arbovirus inh	RecA splice inh	Mtb H37Rv	YopH PTP inh	Mtb bLac sens	others
CCN(C(=O)CCc1nnc2ccc(N3CCC4(CC3)OCCO4)nn12)c1ccccc1	·	-1.9	·	·	2
O=C(c1cc(-c2cccc(O)c2)on1)N1CCCCCC1	·	0.0	·	·	4
NCCCC[C@@H](C(=O)N1CCNCC1)n1cc(CCC(=O)O)nn1	2	-4.3	-15%	·	-2
COC(=O)c1nc(NC(C)=O)n[nH]1	3	0.2	-6%	-46	-1
CCOc1ccc(-c2nnn(CC(=O)NCc3ccco3)n2)cc1OCC	-1	-1.8	-12%	-14	-5
CS(=O)(=O)N(CC(=O)NCCSCc1ccccc1)c1ccccc1	-3	0.3	-5%	·	-6
COc1ccc(C2=NOC(C(=O)NCCCN3CCOCC3)C2)cc1 (centres undefined)	-1	-1.5	-11%	-19	-7
CC(NC(=O)[C@H](C)NC(=O)C1CC(=O)N(c2ccc3c(c2)OCO3)C1)c1ccccc1 (some centres undefined)	·	-1.2	·	·	-4
CC1CC(C)CN(c2oc(Cc3ccccc3)nc2C#N)C1 (centres undefined)	-4	11	-1%	-26	25
Cc1ccc(S(=O)(=O)Nc2ccc3c(c2)n(C)c(=O)n3C)cc1	·	-1.2	·	·	6
O=C(Nc1ccccc1)OCc1cnc(Cl)s1	3	-0.4	-2%	·	-1
C=CCn1c(SCC(=O)NCC)nc2sc3c(c2c1=O)CCC3	·	-4.3	·	·	-2
C=CCn1c(Cn2nnc3ccccc32)nnc1SCC(=O)N/N=C/c1cc(Br)cc(OC)c1O	2	-2.7	2%	9	-8
O=c1[nH]c(SCC2CCCCO2)nc2ccccc12 (centres undefined)	5	0.4	1%	-36	8
COC(=O)c1c(NC(=O)COc2ccc(Cl)cc2Cl)sc2c1CC(C)(C)NC2(C)C	·	5.8	·	·	100
Cn1c(N/N=C2\CCCc3ccccc32)nc2c1c(=O)n(Cc1ccccc1)c(=O)n2C	-6	-1.4	9%	-18	-6
Cn1c(CC(=O)c2ccc(Br)cc2)[n+](C)c2ccccc21	5	-4.1	-3%	·	-9
O=[n+]1cc(-c2ccc(Br)cc2)n([O-])c2c1CCC2	4	0.4	-2%	-37	-4
CCCNC(=O)OCCC12CC3CC(CC(C3)C1)C2	0	2.9	3%	-6	5
CCN(Cc1ccccc1)C(=O)Cc1c[nH]c2ccccc12	·	0.7	·	·	1
COCc1cc(C)c(C#N)c(=S)[nH]1	8	-0.3	-21%	-13	8
CCOC(=O)CCCNC(=O)COC(=O)c1cccc(F)c1	0	-3.2	0%	·	-5
COc1ccc(CCNc2nc(-c3ccc(O)cc3)cs2)cc1OC	·	-2.2	·	·	7
O=C(OCCCN=C1NS(=O)(=O)c2ccccc21)C1CC(=O)N(c2ccc(Cl)cc2)C1 (centres undefined)	0	1.5	-13%	-13	-2
O=C(Oc1ccc(C(=S)N2CCOCC2)cc1)c1ccc(Br)cc1	-6	-0.5	4%	-29	0
O=C(NCC(c1ccco1)N1CCc2ccccc2C1)c1c(F)cccc1F (centres undefined)	·	1.4	·	·	-4
CC(=O)Nc1c(-c2ccccc2)nc2ccc(Cl)cn12	·	-1.3	·	·	-6
COc1ccc(CNC(=O)c2ccc(NC(=O)C3=CSCCO3)cc2)cc1	·	4.1	·	·	13
CCC(=O)n1nc(-c2cccnc2)nc1NCc1ccccc1	-2	1.8	14%	·	·
O=C(CCS(=O)(=O)c1cccs1)Nc1ccc(C(=O)NC2CCN(Cc3ccccc3)CC2)cc1	-16	0.0	6%	·	4
Cc1ccc(NC(=S)NN2CCN(C)CC2)cc1	-2	-1.1	-1%	-26	-9
CC1=NNC(=O)C1CCC(=O)N/N=C(\C)c1ccc(Cl)cc1 (centres undefined)	·	-2.7	-8%	·	-8
Cc1cc(C)n2nc(-c3cnn(C)c3C(F)(F)F)cc2n1	3	-1.1	-7%	-27	7
Cc1cc(C)nc(NC(=O)c2cc(-c3ccc4c(c3)OCO4)nc3ccccc23)c1	·	4.6	·	·	35
Cc1cc(C)n2c(Br)c(CSc3nc4ccccc4s3)nc2n1	8	4.4	-5%	-22	-1
COc1ccc(C(C2C(=O)CC(C)(C)CC2=O)C2C(=O)CC(C)(C)CC2=O)cc1COCC(F)(F)F	-2	-1.1	5%	-18	6
CCCCOc1ccc(C(=O)Nc2ccc3c(c2)C(=O)NC3=O)cc1	·	-2.1	·	·	-2
CCN(CC)c1ccc2c(C)c(CO)c(=O)oc2c1	-6	i	1%	·	-2
CC(O)c1cccc(N=Cc2ccc3ccccc3c2O)c1 (centres undefined)	·	1.0	·	·	-2
COc1ccc(-c2cc(C(=O)Nc3ccccc3O)c3ccccc3n2)cc1	·	-0.6	·	·	4
COc1ccc(CC(=O)Nc2sc3c(c2C(N)=O)CCCC3)cc1OC	·	-0.6	·	·	2
CCOC(=O)CSc1nnc(-c2nnc(SCC(=O)OCC)n2CC)n1CC	5	0.1	-1%	-25	?
O=C(NCCS(=O)(=O)N1CCN(c2ccccc2F)CC1)c1ccc(Br)o1	·	-0.2	·	·	9
O=C(NCCN1CCN(c2ccccc2)CC1)C1CCN(S(=O)(=O)c2cccs2)CC1	6	·	3%	-10	·
CCOC(=O)c1c(C)[nH]c(C(=O)COC(=O)C2CC2C)c1C (centres undefined)	2	0.7	-3%	-40	2
CN(C)CC1CCCCC1OC(=O)/C=C/c1ccc(Cl)cc1Cl (centres undefined)	4	1.2	-1%	·	-3
CCCS(=O)(=O)N1CCC(C(=O)NCCc2ccccc2)CC1	-1	·	-1%	-11	-5
Cc1cc(C)n(-c2ccc(C(=O)O)cc2[N+](=O)[O-])n1	3	-4.6	0%	·	2
Oc1ccccc1C1OCC2(CO1)COC(c1ccccc1O)OC2 (centres undefined)	3	0.9	4%	-23	-5
O=C1[C@H]2[C@@H](c3ccc(F)cc3)N3C(=O)N(c4ccc(C(F)(F)F)cc4)C(=O)[C@@]3(Cc3ccccc3)[C@H]2C(=O)N1C1CCCCC1	·	1.7	·	·	-1

(further entries)
SMILES	Arbovirus inh	RecA splice inh	Mtb H37Rv	YopH PTP inh	Mtb bLac sens	others
Cc1ccnc(SCCn2c(N3CCOCC3)nc3c2c(=O)[nH]c(=O)n3C)n1	·	-0.8	45%	-27	-13
COc1ccc(-c2cnnc(N/N=C/c3ccc(OC)c(OC)c3)n2)cc1	-13	-9.3	4%	11	6
CN(C)C(Cc1ccccc1)C(=O)c1ccc(-c2ccccc2)cc1 (centres undefined)	1	1.3	8%	-12	·
CCN1C(=O)S/C(=C/c2cn(C)c3ccccc23)C1=O	3	-1.0	-10%	-5	5
CN(C(=O)c1cccc(NC(=O)c2ccccc2)c1)C1CCCCC1	·	0.4	·	·	6
Cc1cccc(C(=O)NCC(=O)Nc2ccc(S(=O)(=O)Nc3nc(C)cc(C)n3)cc2)c1	-1	0.0	2%	·	0
O=C(NCc1ccccc1)c1ccc(S(=O)(=O)Nc2cccc(C(F)(F)F)c2)cc1	·	1.0	17%	·	-2
COc1ccc2ccccc2c1CN1CCSCC1	·	-0.2	·	·	-9
CCOC(=O)c1c(-c2ccccc2)csc1NC(=O)c1ccc(S(=O)(=O)N2CCOCC2)cc1	2	-6.3	11%	-12	-7
Cc1cc(=O)oc2c(C)c(OC(C)C(=O)Nc3ccc(N4CCC(C)CC4)cc3)ccc12 (centres undefined)	·	0.3	·	·	-2
Cc1cc(C)cc(N(CC(=O)NC2CCCC2)C(=O)CCC(=O)Nc2cc(C)ccn2)c1	·	-2.1	·	·	1
O=C(Nc1ccc(N2CCOCC2)cc1)Nc1cnsn1	15	0.2	-3%	20	-5
Cc1cc(C)c(C#N)c(SCCS(=O)(=O)Cc2ccc(Cl)cc2)n1	-2	-5.0	-4%	-16	-16
Cc1ccc(S(=O)(=O)Nc2ccccc2CNc2cccc(C)n2)cc1	-9	-1.6	-2%	-28	-1
CCOC(=O)N1CCN(C(=O)c2nn(C)c3c2CSc2ccccc2-3)CC1	·	1.2	·	·	-5
CC(C(=O)Nc1cc(Cl)cc(Cl)c1)N1CCCC1 (centres undefined)	·	-1.8	·	·	-13
CN(Cc1cc2ccccc2[nH]c1=O)C(=O)COc1ccccc1	·	-0.7	-3%	·	1
O=C(CSc1nnc(Cc2cccs2)n1-c1ccccc1)Nc1ccc2c(c1)OCCO2	6	0.6	-6%	-8	27
Cc1cccc2c1cnn2C(=O)CCC(=O)NCC(C)c1ccccc1 (centres undefined)	·	1.3	·	·	-1
COc1ccccc1C(=O)OCC(=O)Nc1ccc(OC(F)F)cc1	8	1.0	0%	0	-8
CCOc1ccc(S(=O)(=O)N2CCOCC2)c2ccccc12	·	1.1	·	·	-2
CCn1cc(CN2CCN(Cc3cccc(OC)c3)C(CCO)C2)c(C)n1 (centres undefined)	0	3.1	-7%	·	-4
Cc1ccc(C)c(S(=O)(=O)N2CCN(C(=O)CSC(=S)N3CCCC3)CC2)c1	·	2.0	·	·	-6
Cc1ccc(NC(=O)C2CCN(S(=O)(=O)c3ccc4c(c3)NC(=O)C(C)S4)CC2)c(Cl)c1 (centres undefined)	·	3.8	·	·	90
COc1ccc(NC(=O)C2=CCN(S(=O)(=O)c3ccccc3)CC2)cc1OC	·	3.3	5%	·	-6
COc1ccc(C2CC(c3ccccc3)n3nc(NC(=O)c4cccs4)nc3N2)cc1 (centres undefined)	-6	1.1	·	-40	55
O=C(Cn1cnc2c(nnn2-c2ccc(F)cc2)c1=O)N1CCCC1	-4	-2.1	-5%	-25	-5
O=C(COC(=O)c1cc([N+](=O)[O-])ccc1NCCO)c1ccc(Cl)cc1	6	1.0	-8%	-29	-1
CCN(CC)S(=O)(=O)c1cccc(C(=O)NC(C(=O)Nc2nnc(C3CC3)s2)C(C)C)c1 (centres undefined)	-2	0.9	2%	-3	-1
O=C(CN(Cc1ccccc1)S(=O)(=O)c1ccc(Br)cc1)NCc1ccco1	1	1.9	4%	-11	-5
Cc1nn2c(-c3ccccc3)ccnc2c1-c1ccccc1	-3	0.7	-1%	11	1
Cc1ccn2c(=O)nc(SCC(=O)Nc3ccc4c(c3)OCCO4)nc2c1	·	-1.0	·	·	-8
CCOC(=O)C1=C(COC(=O)C(CC)Oc2ccccc2)NC(=O)NC1C (centres undefined)	·	1.4	·	·	-9
Cc1ccc(S(=O)(=O)N(C)C)cc1NC(=O)COC(=O)Cc1cccs1	·	-8.2	·	·	-1
Cc1ccc(NS(=O)(=O)c2ccc(Cl)s2)nc1	·	1.7	·	·	-14
COc1cc(NC(=O)Cn2ncc3c2-c2ccccc2OC3)cc(OC)c1OC	0	0.9	-1%	-22	1	Arbovirus inh repeat=-1
COc1ccccc1C(=O)NCCC(=O)Nc1ccc(C)cn1	·	-3.6	·	·	-24
CC(C)(C)c1ccc(OCC(=O)NCCN2CCCC2)cc1	-17	1.4	·	-9	-4
Cc1ccc(-c2ccccc2NC(=O)CCl)o1	4	29	19µM*	-5	100
CCn1c(C)c(C(=O)c2ccccc2)c(C#N)c1C(=O)O	·	-6.3	·	·	-6

4 compounds drawn at random from those above, as already listed:
SMILES	Arbovirus inh	RecA splice inh	Mtb H37Rv	YopH PTP inh	Mtb bLac sens	others
Cc1ccc(S(=O)(=O)N(C)C)cc1NC(=O)COC(=O)Cc1cccs1	·	-8.2	·	·	-1
Cc1ccn2c(=O)nc(SCC(=O)Nc3ccc4c(c3)OCCO4)nc2c1	·	-1.0	·	·	-8
Cc1nn2c(-c3ccccc3)ccnc2c1-c1ccccc1	-3	0.7	-1%	11	1
COc1ccccc1C(=O)NCCC(=O)Nc1ccc(C)cn1	·	-3.6	·	·	-24

(further entries)
SMILES	Arbovirus inh	RecA splice inh	Mtb H37Rv	YopH PTP inh	Mtb bLac sens	others
COc1ccc(C(=O)N/C(=C\c2cc(OC)c(OC)cc2[N+](=O)[O-])C(=O)NCC(=O)O)cc1	5	-0.7	-9%	·	3
COC(=O)c1[nH]cnc1C(=O)c1ccccc1	6	-0.8	0%	-38	-7
CN(CCO)C1=CC(=O)CC(C)(C)C1	-2	-1.0	-1%	-30	-4
O=S(=O)(NCCN1CCOCC1)c1ccc(-c2ccc(S(=O)(=O)NCCN3CCOCC3)cc2)cc1	·	-2.2	·	·	0
CC1CCCC(NC(=O)C2N(CCCN3CCCC3)C(=O)C3C(C(=O)Nc4ccc(Cl)cc4)C4C=CC32O4)C1C (centres undefined)	·	1.8	·	·	-7
CC1=CC(=O)N(c2ccn(C)n2)C1=O	·	1.2	-4%	·	-10
CCOC(=O)C(=O)NNc1cccc(C)c1C	-37	-6.1	2%	-1	-5
COc1ccc(C(=O)NCCc2ccc(C)cc2)cc1OC1CCN(C(C)=O)CC1	·	-1.5	·	·	-10

A portion of the library (hit frequency here may not be typical).
